NPYLR7 agonist: agonists of mosquito NPYLR7 receptor, primary screen, cell-based, Aedes aegypti, calcium fluorescence, mosquito biting behavior. Aedes aegypti neuropeptide Y-like receptor 7 (NPYLR7). HEK293T NPYLR7/Galpha15, GCaMP6s calcium fluorescence. activation, % at 10 µM. actives 0.15% (n = 270,000). AID 1259423, 2018; in the data active means activation above about 40%;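 further: 0% = vehicle and 100% = reference agonist at the receptor; some compounds past the cut are filed as inactive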
NPYLR7 agonist max-min: recorded beside NPYLR7 agonist, whose call it bears; activation, %; measured here: Max-Min RFU normalised activation; some inactives read as strong as hits;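 span of the calcium signal over five minutes; 0% = vehicle and 100% = native peptide agonist; compound fluorescence can raise it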
Numbers without * were called inactive; & = joins results of further samples. These rows are one share of the data, so the mix of outcomes need not match the whole.

Start of the listing, in advance:
SMILES	NPYLR7 agonist	NPYLR7 agonist max-min
Cc1ccc(Cn2nc(-c3ccco3)c3sc(C)nc3c2=O)cc1	2	-2
CN(C)CCCN(C(=O)CCOc1ccccc1)c1nc2c(Cl)cccc2s1	5	3

All compounds of this part (from the top)
SMILES	NPYLR7 agonist	NPYLR7 agonist max-min
Cc1ccc(Cn2nc(-c3ccco3)c3sc(C)nc3c2=O)cc1	2	-2
CN(C)CCCN(C(=O)CCOc1ccccc1)c1nc2c(Cl)cccc2s1	5	3
OCCC1CN(Cc2cn[nH]c2-c2cccc(F)c2)CCN1Cc1ccsc1 (stereo unspecified)	4&2	0&0
CCCCN(Cc1ccco1)C(=O)c1coc2c1C(=O)CCC2	-4	-3
O=C(c1ccc(Cn2ccnc2)o1)N1C[C@H]2CC=CC[C@H]2C1	-7	-7
CCSc1nc(SCC(N)=O)c2sc3c(c2n1)COC(C)(C)C3	-14	-21
Cc1ccc(OCCN2CCC2(C)C(=O)NCc2ccc(C(F)(F)F)cc2)cc1 (stereo unspecified)	3	-2
COCCn1c(=NC(=O)c2cc(C)no2)sc2cccc(F)c21	4	8
Nc1ccc(F)cc1-c1ccc(F)cc1	-14	-20
O=C1N=c2ccc(F)cc2=C1c1sc(=S)[nH]c1O	-1	-4
Cc1ccccc1CSc1nnc(CNC(=O)COCc2ccccc2)n1-c1ccc(Cl)cc1Cl	3	18
COc1ccc(/C=C\C(=O)OCc2cc(-c3ccc4c(c3)OCO4)on2)cc1OC	-1	-2
CCCCSCSc1nc(C)cc(C)c1C#N	13	6
CCCN(CCC)S(=O)(=O)c1ccc(C(=O)Nc2nnc(-c3ccccc3)s2)cc1	-2	-6
CC(C)NC(=O)CSc1nnc(SCC(=O)c2ccccc2)s1	-3	-4
Cc1ccc2cc(C3(O)CCN(C(=O)c4cncc(Cl)c4)CC3)ccc2n1	-5	-15
Nc1ncnc(Nc2ccc(OCc3ccccc3)cc2)c1[N+](=O)[O-]	-2	-4
CC(C)C(=O)Nc1ccc(SCC(=O)NC2CCCC2)nn1	-4	-5
Cc1ccc(C)c(CC(=O)N2CCC(n3c(Cc4ccccc4)nc4ccccc43)CC2)c1	27	16
COc1ccc(C(=O)C2CCCN(c3cnc4ccccc4n3)C2)cc1OC (stereo unspecified)	-2	32
Cc1ccc2c(c1)oc(=O)n2C1CCN(C(=O)Cc2ccccc2)CC1	5	2
CCCc1cnc2c(c1SCC(=O)NCCOC)c(=O)n(C)c(=O)n2C	-7	-6
O=C(CN1C(=O)c2ccccc2C1=O)Nc1nc2c(s1)CCCCC2	16	7
CN(Cc1cnn(Cc2ccccc2)c1)CN1C(=O)C2CC=CCC2C1=O (stereo unspecified)	2	8
COCCN(C(=O)c1cnc(-c2ccccc2)nc1)C(C)C(N)=O (stereo unspecified)	11	11

In the list so far, 2 contain an aryl methoxy group:
SMILES	NPYLR7 agonist	NPYLR7 agonist max-min
COc1ccc(/C=C\C(=O)OCc2cc(-c3ccc4c(c3)OCO4)on2)cc1OC	-1	-2
COc1ccc(C(=O)C2CCCN(c3cnc4ccccc4n3)C2)cc1OC (stereo unspecified)	-2	32

2 entries drawn at random from the list so far:
SMILES	NPYLR7 agonist	NPYLR7 agonist max-min
CCCCSCSc1nc(C)cc(C)c1C#N	13	6
Cc1ccccc1CSc1nnc(CNC(=O)COCc2ccccc2)n1-c1ccc(Cl)cc1Cl	3	18

The listing picks up with the three entries that preceded the break.
SMILES	NPYLR7 agonist	NPYLR7 agonist max-min
O=C(CN1C(=O)c2ccccc2C1=O)Nc1nc2c(s1)CCCCC2	16	7
CN(Cc1cnn(Cc2ccccc2)c1)CN1C(=O)C2CC=CCC2C1=O (stereo unspecified)	2	8
COCCN(C(=O)c1cnc(-c2ccccc2)nc1)C(C)C(N)=O (stereo unspecified)	11	11
Cc1ccc(C)c(NC(=S)N2CCN(S(=O)(=O)c3cccs3)CC2)c1	5	8
C/C(=N\NC(=O)CSc1nnc(-c2ccccc2)n1-c1ccccc1)c1ccc([N+](=O)[O-])cc1	-8	-16
O=C(OC1CCSc2ccccc21)C1CCCN(C(=O)C2CC2)C1 (stereo unspecified)	0	25
C=CCCC(O)CN(Cc1nc2scc(-c3ccccc3OC)c2c(=O)[nH]1)Cc1ccco1 (stereo unspecified)	2	8
CCOC(=O)c1c(NC(=O)c2ccccc2)sc(C(=O)Nc2ccccc2F)c1C	-7	-16
Cc1ccc(Cc2nc(N3CCN(C(=O)Nc4cccc(Cl)c4Cl)CC3)c3c(-c4cccnc4)noc3n2)cc1	-1	-7
C=CCNCC1CC(c2ccc(OC)cc2)=NO1 (stereo unspecified)	1	6
CC(C)(C)NC(=O)COC(=O)c1ccc2c(c1)S(=O)(=O)c1ccccc1C2=O	-1	-3
O=C1CC(c2ccccc2Br)Sc2ccccc2N1 (stereo unspecified)	9	12
COc1ccc(NC(=O)CC(=O)N2CCN(C)C3(CCN(C)CC3)C2)cc1	-5	-4
CS(=O)(=O)Nc1ccccn1	3	4
CC(C)c1cc(C(C)C)n(C2CCN(C(=O)C3CCCCC3)CC2)n1	21	16
O=C(/C=C/c1cc(F)ccc1F)NCC1COc2ccccc2O1 (stereo unspecified)	-11	-12
CC(C)SC(NC(=O)OCc1ccccc1)C(=O)N1CCC2(CC1)CC(=O)c1ccccc1O2 (stereo unspecified)	-6	-10
CCc1cc(=O)[nH]c(-c2ccc(N3CCOCC3C)nc2)n1 (stereo unspecified)	0	-3
O=C(COC(=O)COc1ccc(Cl)cc1)NCCN1C(=O)SC(=Cc2ccccc2F)C1=O	-5	-9
O=C(NC(=S)N1CCOCC1)C12CC3CC(CC(C3)C1)C2	4	4
CCOC1CC(O)C12CCN(C(=O)c1cc(Cl)ccn1)CC2 (stereo unspecified)	10	9
Cc1cc(C)n(-c2cccc(-c3nccn3CCc3cccnc3)c2)n1	18	9
Cc1nc(C(=O)N(Cc2c(F)cccc2Cl)C2CC2)cs1	5	-7
O=C(CCc1nc(-c2ccsc2)no1)NCc1cccc(Cl)c1	14	7
O=C(Nc1ccc(-c2nc3cc(Cl)ccc3o2)cc1)c1cc([N+](=O)[O-])ccc1Cl	-6	-17
CC(C)=CC1C(C(=O)N2CCNC(=O)C2C)C1(C)C (stereo unspecified)	11	8
C=CCNC/C=C/COc1cccc(C)c1C	-10	-17
O=C(c1cc(=O)c2ccccc2o1)N1CCc2c([nH]c3ccccc23)C1c1ccccc1F (stereo unspecified)	-5&12	0&4
COc1ccccc1Oc1ccc(S(=O)(=O)Nc2ccccc2F)cc1	4	11
Cc1cccc(CN2CCC3(CCCN(C(=O)COc4ccccc4)C3)C2)n1 (stereo unspecified)	7	-7
O=C(Nc1nc(-c2ccc(Cl)cc2)cs1)c1ccc2c(c1)OCO2	-6	-3
Cc1cccc(N=c2sc(C3=c4ccccc4=NC3=O)c(O)n2-c2cccc(C)c2)c1	1	-2
Cn1ccc(Cn2nnnc2C(C)(C)C)cc1=O	10	7
COc1cc(C2(C(=O)NCC(=O)N3CCCC3)CC2)ccc1C	11	12
COc1cccc(C(=O)N2C(C(=O)NC(C)c3ccccc3)COC23CCC(C)CC3)c1 (stereo unspecified)	3	19
Cc1ccc(CN2CCN(C(=O)Cn3[nH]c(=O)ccc3=O)CC2=O)cc1	7	6
O=C(CNC(=O)c1ccncc1)N=Nc1c(O)[nH]c2ccc([N+](=O)[O-])cc12	0	-4
Cc1cc(NC(=O)Cn2c3ccccc3c(=O)c3ccccc32)ccc1Br	-3	-7
CC(C)Cn1c(CN2CCN(c3nc4ccccc4o3)CC2)cnc1S(C)(=O)=O	2	0
O=C(CCCCc1ccccc1)N1CCCn2cncc2C1	26	17
COc1cc(N2C(=O)C3C4C=CC(C4)C3C2=O)nc(OC)n1 (stereo unspecified)	20	17
COc1ccccc1NC(=O)Oc1c(C)cc(Cl)cc1C	-2	-2
CCNC(=O)C(C)NC(=O)C(Sc1ccccc1)c1ccccc1 (stereo unspecified)	6	5
C=C(C)Cn1c(C2CC(=O)N(c3ccc(C)cc3)C2)nc2ccccc21 (stereo unspecified)	6	11
CCOC(=O)c1csc(NC(=O)c2ccc(S(=O)(=O)N(C)C)cc2)n1	-5	-9
NC(=O)c1ccc(C23CC4CC(CC(C4)C2)C3)o1	4	4
C=C(C)COc1cccc(C(=O)NCCc2nc(C)c3c(n2)CCCC3)c1	0	-9
CC(C)c1nnc2sc(-c3c[nH]c4ccccc34)nn12	-3	-12
CC(=O)Nc1cncc(-c2cccc(S(C)(=O)=O)c2)n1	4	2
Cn1c(=O)c2c(ncn2CC(=O)OCC(=O)c2ccc(Cl)s2)n(C)c1=O	0	-2
Cc1nonc1CC(=O)N1CCCC(CNC(=O)c2ccc(F)cc2)C1 (stereo unspecified)	2	0
O=C(O)CCC(=O)NNc1ccccc1[N+](=O)[O-]	-4	0
COC(=O)c1cc(-c2c(C)nn(-c3ccccc3)c2C)n[nH]1	-2	2

Next records
SMILES	NPYLR7 agonist	NPYLR7 agonist max-min
CCOC(=O)C1=C(C)Nc2c(C#N)c(N3CCOCC3)nn2C1c1ccc(OC)cc1 (stereo unspecified)	14	8
COc1ccc(N2CCN(C3CCCN(C(=O)c4ccccc4SC)C3)CC2)cc1 (stereo unspecified)	7	6
O=C(c1ccc(Br)o1)c1c(-c2ccccc2)[nH]n(-c2ccccc2)c1=O	-7	-10
Cc1cnn(CC(=O)Nc2cnn(-c3cccc(C(F)(F)F)c3)c2)c1	-3	-9
O=C(c1cnc2ccccc2c1)N1CCN(Cc2cccc(-c3noc(-c4cccnc4)n3)c2)CC1	-7	7
CCCc1cnc(C)nc1-c1cccc2cnccc12	5	3
COC(CNC(=O)c1sc2nc(-c3ccc(F)cc3)cn2c1C)OC	-5	-5
Cc1ccc(C(=O)N=Nc2c(O)[nH]c3ccc(Br)cc23)cn1	4	5
CNc1nc2c(C)cccn2c(=O)c1C=Nc1ccc(OC)cc1	-2	-5
CCc1nnc(CN2CCCC2c2nc3ccccc3s2)o1 (stereo unspecified)	-3	-4
CCN(CC)c1cc(COC)nc(SCc2cccc(C(=O)NCc3cccnc3)c2)n1	6	14
CCn1ccnc1CN1CCCC(N2CCc3cc(OC)c(OC)cc3C2)C1 (stereo unspecified)	9&-1	5&-1
Cc1cc2c3c(C)n(C4CCCCC4)c(C)c3c(C)nn2c1	-9	-19

Screening results deposited in PubChem by Fisher Drug Discovery Resource Center.
